Compound activity deposited in PubChem by National Center for Advancing Translational Sciences (NCATS).
TsaE inh = displaces an ADP probe from E. coli YjeE (TsaE). purified YjeE, fluorescence polarisation of a bound ADP probe. Potency, µM. 71,000 tested, 0.05% active; active = well fitted falling curve; inconclusive = weaker or top-dose-only fall, or a rising curve; inactive = flat or poorly fitted curve;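 further: top concentration of the series not given in the record; excess ADP was the control for the full effect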
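Fluorescence polarization of a BODIPY Texas Red–ADP probe (2 uM) bound to purified YjeE (10 uM) was read after 15 min room-temperature incubation with compounds. Loss of polarization marks inhibitors; ADP serves as titrated control.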
Bst PK mod = pyruvate kinase (B. stearothermophilus) modulation; 51,000 tested, 1.2% active; AID 361; Potency, µM; partly purified Bacillus stearothermophilus pyruvate kinase, luminescence ATP production; ribose 5-phosphate activator present at AC10; in the data active means potency below about 11 µM; inconclusive means mostly about 12 µM to 25 µM; inactive means weaker than that;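 the screen sought inhibitors and activators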;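 further: potency means the concentration at half of the fitted maximal effect; scaled between full activation by ribose 5 phosphate and full inhibition by luteolin; about four in five hits inhibit and the cells do not say which; series up to 57 µM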
Active calls of the source: *; i = inactive; · = not tested or not shown; & = joins results of further samples. Not all compounds are listed; rates above refer to the full screens.

SMILES	TsaE inh	Bst PK mod
CCOCC(=O)N1CCc2ccccc21	i	>57
CN(C)Cc1ccc(O)c(CCc2ccccc2)n1	i	>57
CCOC(=O)CC1=C(C#N)C(c2cccnc2)C(C(=O)OCC)=C(N)O1 (stereo not given)	i	>57
CCOC(=O)N1CCN(C(=O)Nc2ccccc2Cl)CC1	i	>57
O=C(CSc1nnc(CNc2ccc(F)cc2)n1Cc1ccco1)NC1CC1	i	>57
COc1cc(NC(=O)c2cc3c(C)nc4ccccc4c3o2)cc(OC)c1OC	i	·
CCOc1ccc(N2C(=O)c3cccnc3C2Nc2ccc(F)cc2)cc1 (stereo not given)	i	>57
CCc1c(C(=O)Nc2cc(C)ccc2OC)[nH]c(C)c1C(C)=O	i	>57
COC(=O)C1=C(C)N(c2ccc(C(=O)OC)cc2)C(=O)C1	i	>57
CCn1c(SCC(=O)Nc2ccccc2N2CCCCC2)nc2c1c(=O)n(C)c(=O)n2C	i	>57
c1ccc2c(c1)CCN(CCCNc1nc3ccccc3n3cnnc13)C2	i	·
O=C(Cn1nnc(-c2ccccc2NC(=O)c2cccs2)n1)Nc1ccccc1	i	>57
CC1CC(=O)c2cnc(NCc3ccco3)nc2C1 (stereo not given)	i	>57
COc1ccccc1NC(=O)CCC(=O)O	i	>57
CS(=O)(=O)N1CCC(C(=O)N2CCc3ccccc3C2)CC1	i	>57
COc1ccc(-n2c(COc3cccc(C)c3)nnc2SCC(=O)NCc2ccco2)cc1	i	>57
Cc1c(C)n(C(=O)CSc2ncn[nH]2)c2ccccc12	i	i
CCN(C(=O)COc1cc(=O)n(CC)c2ccccc12)c1cccc(Cl)c1	i	·
Cc1cccc(NCN2C(=O)c3ccncc3C2=O)n1	i	>57
CS(=O)(=O)N1CCC(C(=O)Nc2ccc(F)cc2F)CC1	i	>57
CCOC(=O)c1c(C)[nH]c(C)c1C(=O)CSc1nnc(-c2ccco2)n1Cc1ccccc1	i	>57
Nc1n[nH]c2c1C1(CCCCC1)Cc1ccccc1-2	i	>57
COc1ccc(CNC(=O)C2CCCN2S(=O)(=O)c2ccc(S(=O)(=O)N(C)C)cc2)cc1 (stereo not given)	i	>57
COc1ccc2cc1Oc1ccc(cc1)C[C@H]1c3cc(c(OC)cc3CCN1C)Oc1c(OC)c(OC)cc3c1[C@@H](C2)N(C)CC3	i	·
COC(=O)C1(C)C=CCN1C(=O)c1ccccc1 (stereo not given)	i	·
CCOC(=O)CN(C(=O)CSc1nnc(C)n1-c1ccccc1)c1ccccc1	i	>57
COc1cc(NC(=O)CN2C(=O)NC(C)(CCC(C)C)C2=O)cc(OC)c1 (stereo not given)	i	>57
CNc1ccnc(-c2ccccc2C)n1	i	·
COc1cccc(-c2cc(C(=O)Nc3cc(C)n(Cc4ccc(Cl)cc4)n3)no2)c1	i	>57
O=C1CC(N2CCN(Cc3ccccc3)CC2)C(=O)N1c1ccccc1 (stereo not given)	i	·
Cc1ccc(-c2csc3ncn(-n4c(C)ccc4C)c(=O)c23)o1	i	>57
Cc1cccc2cc(C#N)c(N3CCCC3)nc12	i	>57
CCn1c(SC)nnc1-c1nnc(SC)n1CC	i	>57
CCCCn1c(SCC(=O)Nc2cccc(C)n2)nnc1-c1ccco1	i	>57
Cc1sc2c(=O)n3c(nc2c1C(=O)NCCCN1CCOCC1)CCCCC3	i	>57
C[C@]1(c2ccccc2)O[C@@H]2C[C@@H]3[C@@H]4CCC5=CC(=O)C=C[C@@]5(C)[C@]4(F)[C@H](O)C[C@]3(C)[C@@]2(C(=O)CO)O1	i	·
Cc1nc2ncnn2c(C)c1CCC(=O)N1CCN(C(=O)c2ccco2)CC1	i	>57
O=C(CCCOc1ccccc1)Nc1ccc(S(=O)(=O)N2CCOCC2)cc1	i	>57
CCN(CC)c1ccc2cc(-c3nc4ccccc4[nH]3)c(=O)oc2c1	i	·
N[C@H](C(=O)O)[C@H](OCc1ccccc1)C(=O)O	i	·
O=S(=O)(NCCc1csc(-c2cccnc2)n1)c1cccs1	i	·
COC(=O)[C@@]1(Cc2ccc(OC)cc2)[C@H]2c3cc(C(=O)N4CCCC4)n(CCc4c[nH]c5ccccc45)c3C[C@H]2CN1C(=O)c1ccccc1	i	·
CC1(C)CC(=O)C=C(Nc2ccc3c(c2)OCCO3)C1	i	·
CC(C(=O)O)c1ccc(-c2ccccc2)c(F)c1 (stereo not given)	i	>57&>26
CN1CCN(CCCNC(=O)c2cn(C)c3ccc(S(=O)(=O)N(C)C)cc3c2=O)CC1	i	·
Cc1ccccc1-c1nccc(Nc2ccc(F)cc2)n1	i	·
CCCN(CCC)CCCNC(=O)c1cn(CCOC)c(=O)c2c1c1ccccc1n2C	i	>57
COCCN(C(C)=O)c1nnc(-c2cnccn2)s1	i	>57
Cc1cc(C)cc(N(CC(=O)Nc2cccc(C)n2)S(=O)(=O)c2c(C)noc2C)c1	i	·
CCS(=O)(=O)N1CCCC(C(=O)NCc2ccc(C)cc2)C1 (stereo not given)	i	>57

(list continues)
SMILES	TsaE inh	Bst PK mod
Cc1nnc(NC(=O)C2COc3ccccc3O2)s1 (stereo not given)	i	>57
C1CCN2C[C@@H]3C[C@@H](CN4CCCC[C@H]34)[C@H]2C1	i	·
O=C1CC(N2CCSCC2)C(=O)N1CCc1ccccc1 (stereo not given)	i	>57
CCCCCNC(=O)CCCCn1c(=O)[nH]c2cc(OCC)c(OCC)cc2c1=O	i	>57
C=C(C)CSc1nc(N)c2c(C)c(C)sc2n1	i	>57
O=C(CCC1COc2ccccc2O1)Nc1cccnc1 (stereo not given)	i	>57
COC(=O)Nc1ccc(S(=O)(=O)N(C)C)cc1	i	>57
CCCOc1ccc(C2C(C(=O)c3ccco3)=C(O)C(=O)N2CCCn2ccnc2)cc1 (stereo not given)	i	>57
COc1ccc(Cl)cc1NC(=O)CC(C)=O	i	·
CCOC(=O)C1=C(C)N=C2SC(C)C(=O)N2C1c1cccc(F)c1 (stereo not given)	·	>26

Single records (already shown). Screens in order: TsaE inh | Bst PK mod
C=C(C)CSc1nc(N)c2c(C)c(C)sc2n1 is entered as i | >57
CCCCCNC(=O)CCCCn1c(=O)[nH]c2cc(OCC)c(OCC)cc2c1=O is entered as i | >57
O=C(CCC1COc2ccccc2O1)Nc1cccnc1 (stereo not given) is entered as i | >57

The listing continues:
SMILES	TsaE inh	Bst PK mod
CC(C)CN1CC[C@@]2(CCCN(S(=O)(=O)c3ccccc3)C2)C1	i	·
COC(=O)N1[C@H](Cc2ccccc2)C=C[C@]1(C)C(=O)NCc1ccccn1	i	·
COC(=O)C(CCSC)NC(=O)Cn1ncc2c(=O)oc3ccc(C)cc3c21 (stereo not given)	i	·
Cc1ccccc1NS(=O)(=O)c1ccc(NC(=O)c2ccco2)cc1	i	>57
Cc1cc(N2C(=O)CCC2=O)n(-c2ccccc2)n1	i	>57
COC(=O)c1ccc(NC(=O)C2C3C=CC(O3)C2C(=O)O)cc1 (stereo not given)	i	>57
Nc1nc(NC(=O)c2cccs2)nn1-c1ccccc1	·	>26
CN(C)S(=O)(=O)N1CCN(S(=O)(=O)c2ccccc2)CC1	i	>57
Cc1cccc(NC(=O)CCCCCN2C(=O)c3ccccc3C2=O)n1	i	>57
COc1cccc(Nc2ncc3nc(C)c(=O)n(-c4ccccc4)c3n2)c1	i	·
CC(C)c1ccccc1OCCCCCNCCO	i	·
Cc1ccc(CC(=O)NCC(C)C)cc1	i	>57
CCc1ccccc1OCc1nnc(N)s1	i	>57
COc1ccccc1-n1c(SCC(=O)N(C)C2CCS(=O)(=O)C2)nc2ccccc2c1=O (stereo not given)	i	>57
CCC1(C(=O)OC)NC(c2cccc(F)c2)C2C(=O)N(C)C(=O)C21 (stereo not given)	i	>57
CCCn1nnc(NC(=O)c2sc3ccccc3c2Cl)n1	i	·
CCOC(=O)c1c(C)oc2c1c(C=NC1CCS(=O)(=O)C1)c(O)c1ccccc12 (stereo not given)	i	>57
O=C(C1CCN(c2ccc(N3CCOCC3)nn2)CC1)N1CCN(c2ccc(F)cc2)CC1	i	>57
COc1ccc(CC(=O)Nc2cc(C)ccn2)cc1	i	>57
CCS(=O)(=O)N1CCC(C(=O)NCCc2ccccc2)CC1	i	>57
CC1(C)CC(=O)C2=C(C1)Oc1ncn3nc(-c4cccnc4)nc3c1C2c1ccccc1 (stereo not given)	i	>57
CCOC(=O)C1CCN(C(=O)c2cc3cc4cc(OC)ccc4nc3o2)CC1	i	i
O=C(NCCN1CCCC1)C1CC(=O)N(C2CCCCC2)C1 (stereo not given)	i	>57
CCCc1nnc(SCC(=O)N2CCCC(C)C2)n1CCCOC (stereo not given)	i	>57
CCOC(=O)N1CCN(C(=O)c2ccc(Cl)c(S(=O)(=O)Nc3ccccc3)c2)CC1	i	>57
N[C@H](C(=O)O)c1cccc(O)c1	i	·
COc1cccc(CNC(=O)CCS(=O)(=O)c2cccc3nsnc23)c1	i	>11
COc1ccc(-c2cc3ccc(OCc4nn[nH]n4)cc3oc2=O)cc1	i	5.1*
CCC(Cl)CC(Cl)C(Cl)C(Cl)C(Cl)C(C)Cl (stereo not given)	i	·
O=C(COn1nnc2ccccc21)NCC1CCCCC1	i	>57

Compounds listed so far containing a cyano group, in the order listed:
SMILES	TsaE inh	Bst PK mod
CCOC(=O)CC1=C(C#N)C(c2cccnc2)C(C(=O)OCC)=C(N)O1 (stereo not given)	i	>57
Cc1cccc2cc(C#N)c(N3CCCC3)nc12	i	>57

(listing goes on)
SMILES	TsaE inh	Bst PK mod
NC(=O)c1cccc([N+](=O)[O-])c1	i	·
O=C(CN1C(=O)C2C3C=CC(C3)C2C1=O)Nc1ccc2nccnc2c1 (stereo not given)	i	·
CC(C)c1nc2ccccc2c2nnc(SCC(=O)NCc3ccco3)n12	i	>57
O=C(Cn1nnc(-c2ccccc2)n1)Nc1ccccc1N1CCOCC1	i	>57
CCOc1ccc(-c2nnc3sc(COc4ccc(C)cc4)nn23)cc1	i	>57
Clc1ccc(Cn2ncc3c(N4CCCCC4)ncnc32)c(Cl)c1	i	>57
CCCCn1nnnc1SCC(=O)Nc1ccc2c(c1)OCO2	i	>57
CC(=O)Nc1ccc(C(=O)CCl)cc1	i	·
COc1cccc(OC)c1C(=O)Nc1ccccc1C(=O)N1CCOCC1	i	>57
Nc1cc(C(=O)OCC(=O)NCC2CCCO2)ccc1Cl (stereo not given)	i	>57
Cc1cccc(N(C)C(=O)COc2cc(=O)n(C)c3ccccc23)c1	i	·
CN(C)CCCOC(=O)c1ccc(Cl)cc1	i	·
CC(OC(=O)C(NC(=O)c1ccco1)C(C)C)C(=O)Nc1ncc(Cl)cc1Cl (stereo not given)	i	>57
FC(F)(F)c1cnc(Oc2ccc(-c3nnco3)cc2)c(Cl)c1	i	>57
COc1ccc(Cl)cc1Nc1cc(C)nc2nc(C)nn12	i	·
COc1ccc(CNc2ncnc3ccc(-c4ccc(N(C)C)cc4)cc23)c(OC)c1	i	·
CC(C)C(=O)N1CCN(c2nc(-c3ccccc3)c3c(c2C#N)CCCC3)CC1	·	>26
COc1ccc(S(=O)(=O)NCc2ccccc2Cl)cc1OC	i	·
CSc1ccc(C(=S)N2CCN(C)CC2)cc1	i	>57
O=C(Cc1cccs1)Nc1ccc(-c2nnn(CC(=O)N3CCOCC3)n2)cc1	i	·
Cc1nn(-c2ccccc2)c(C)c1P(=O)(c1ccccc1)N(C)C (stereo not given)	i	>57
COc1cccc(-n2c(Cc3cc(=O)[nH]c(=O)[nH]3)nnc2SCC(=O)N2CCC(C)CC2)c1	i	>57
Cc1ncc(CC(=O)n2cc(C(=O)c3cc(Cl)ccc3O)cn2)s1	i	>57
Cc1cc(=O)oc(C)c1C(=O)NC1CC(C)(C)NC(C)(C)C1	·	>26
Cc1ccc(CN(C(=O)c2c(F)cccc2F)C2CC(C)(C)NC(C)(C)C2)o1	i	>57
CCCOC(=O)c1ccc(NS(=O)(=O)c2cccs2)cc1	i	>57
O=C(CC1SC(N2CCCCC2)=NC1=O)Nc1cccc(C(=O)O)c1 (stereo not given)	i	>57
CCOC(=O)C(C#N)C(Cc1ccccc1)c1ccco1 (stereo not given)	·	>26
COc1cc(-c2noc(CCC(=O)Nc3cccnc3)n2)cc(OC)c1OC	i	>57
CCN(Cc1cc2cc(OC)ccc2[nH]c1=O)C(=O)Cc1ccc(OC)cc1	i	>57
O=C(CCN1C(=O)C2C3C=CC(C3)C2C1=O)N1CCN(c2ccccc2F)CC1 (stereo not given)	i	>57
c1cncc(CNc2ccnc(-c3cccnc3)n2)c1	i	·
COC(=O)N1C2(C=CC1(C)C(=O)NCc1ccc(N(C)C)cc1)CCCCC2 (stereo not given)	i	·
C[N+](C)(C)CCOC(N)=O	i	·
CCOc1cccc2cc(C(=O)N3CCN(C/C=C/c4ccccc4)CC3)c(=O)oc12	i	>11
CC(C)c1nc(N2CCN(C(=O)c3ccco3)CC2)c2c3c(sc2n1)CCCC3	i	>57
CCCCNC(NCCCC)=C(S(=O)(=O)CC)S(=O)(=O)CC	i	·

Copied from the listing for reference:
SMILES	TsaE inh	Bst PK mod
COc1ccc(CNC(=O)C2CCCN2S(=O)(=O)c2ccc(S(=O)(=O)N(C)C)cc2)cc1 (stereo not given)	i	>57
COc1ccc2cc1Oc1ccc(cc1)C[C@H]1c3cc(c(OC)cc3CCN1C)Oc1c(OC)c(OC)cc3c1[C@@H](C2)N(C)CC3	i	·

Taken from above.
Bst PK mod, `O=C(CCN1C(=O)C2C3C=CC(C3)C2C1=O)N1CCN(c2ccccc2F)CC1` (stereo not given) reads >57
Bst PK mod, `CC(C)c1nc(N2CCN(C(=O)c3ccco3)CC2)c2c3c(sc2n1)CCCC3` reads >57
Bst PK mod, `CCOc1cccc2cc(C(=O)N3CCN(C/C=C/c4ccccc4)CC3)c(=O)oc12` reads >11
